Source: PubChem BioAssay (several laboratories)
UUG fidelity – modulators of yeast start codon fidelity, primary screen, whole organism, S. cerevisiae, single point, plate reader; activity score, % at 18.7 µM; S. cerevisiae UUG-firefly luciferase reporter, luminescence/redox ratio; actives 0.13% (n = 350,000);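 active = replicate mean at a twofold rise or more, about +100% in these data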;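 note: firefly luciferase made from a UUG start codon reports start codon fidelity; reporter light over untreated wells divided by growth signal over untreated wells; some hits fall short of that in this replicate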
Rce1 inhib – yeast Rce1p protease inhibitors, primary screen, biochemical, fluorescence, cell-free homogeneous | yeast membranes, quenched prenylated peptide cleavage fluorescence | actives 0.27% (n = 290,000) | calls only | AID 2563, 2010;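 active = fall in fluorescence gain of 50% or more versus controls, with final raw signal at or below 3038400; inconclusive = same 50% fall but final raw signal above 3038400; inactive = fall in fluorescence gain under 50%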;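 note: plate controls were neutral control wells for no effect and wells lacking membranes for full effect; tested at 10 µM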
PABP FP inh – PABP poly(A) RNA binding inhibitors, primary screen, biochemical, fluorescence polarization, uHTS; actives 1% (n = 290,000); Polyadenylate-binding protein 1 (Homo sapiens), P11940; inhibition, % at 35 µM;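 active = 50% or more with normal probe brightness, or confirmed in later tests; inconclusive = above 50% with abnormal brightness, or retests that disagree; inactive = below 50% or failed in later tests; about a fifth of its hits are not listed in these tables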;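 note: calls also rest on retests at 20 µM and on dose response follow-up; controls were probe without protein and protein plus probe with vehicle; some compounds called inactive have numbers as strong as hits; many hits fall short of the cut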
Target sequence (P11940 whole entry, looked up): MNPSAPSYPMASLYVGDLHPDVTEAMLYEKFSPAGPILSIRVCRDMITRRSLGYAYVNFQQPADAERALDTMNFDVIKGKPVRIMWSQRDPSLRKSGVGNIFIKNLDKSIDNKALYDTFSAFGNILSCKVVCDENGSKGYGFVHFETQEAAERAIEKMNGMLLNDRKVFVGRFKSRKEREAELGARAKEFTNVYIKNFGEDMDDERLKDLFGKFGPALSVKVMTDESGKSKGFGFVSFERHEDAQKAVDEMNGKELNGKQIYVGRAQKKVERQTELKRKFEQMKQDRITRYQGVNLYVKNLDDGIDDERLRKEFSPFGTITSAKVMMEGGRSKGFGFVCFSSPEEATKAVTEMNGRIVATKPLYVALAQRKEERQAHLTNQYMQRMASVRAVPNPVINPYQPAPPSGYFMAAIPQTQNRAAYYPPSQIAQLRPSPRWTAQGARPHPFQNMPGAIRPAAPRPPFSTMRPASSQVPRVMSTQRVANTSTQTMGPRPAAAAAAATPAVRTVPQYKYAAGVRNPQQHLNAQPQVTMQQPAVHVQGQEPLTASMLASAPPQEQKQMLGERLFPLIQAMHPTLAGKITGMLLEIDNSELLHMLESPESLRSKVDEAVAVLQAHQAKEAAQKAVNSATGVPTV
eIF4H FP inh – human eIF4H binding inhibitors, primary screen, translation initiation inhibitor project, biochemical, uHTS, fluorescence polarization; eIF4H fluorescence polarization binding assay; inhibition, % at 35 µM; actives 0.94% (n = 290,000);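 active = 50% or more with normal probe brightness, or confirmed in later tests; inconclusive = above 50% with abnormal brightness, or retests that disagree; inactive = below 50% or failed in later tests; about a fifth of its hits are not listed in these tables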;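 note: calls also rest on retests at 20 µM and on dose response follow-up; 0% = protein and probe with vehicle and 100% = probe without protein; strong numbers were not always called active; many hits fall short of the cut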
CSC inhib – cancer stem cell viability inhibitors, primary screen, luminescence; cancer stem cell-like cells viability; inhibition, % at 7.5 µM; actives 1.1% (n = 300,000);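 active = mean at 75% or more and at least half the replicates too; inconclusive = mean and replicates disagree; tested in HMLE shEcad cells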;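 note: 0% = median of negative and 100% = median of positive control wells; the first replicate is given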
HIV Env fusion – inhibitors of HIV-1 Env-driven cell-cell fusion, primary screen, HeLa-JRFL effector, CEM21 target cells, luciferase. inhibition, % at 12.3 µM. actives 1.1% (n = 360,000);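 active = mean replicate inhibition score of at least 50 and every replicate individually at or above 50; inconclusive = only one of the two criteria met; inactive = mean below 50 and not all replicates reaching 50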;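 note: 0% = plate neutral controls and 100% = maraviroc near 300 nM; one replicate is shown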
MT1-MMP act inh – blockers of MT1-MMP proenzyme processing, primary screen, HT1080 RFP-PRO-GFP cells, GFP/RFP fluorescence; GFP/RFP ratio change, % at 20 µM; AID 651647, 2012; Matrix metalloproteinase-14 (Homo sapiens), P50281; actives 0.061% (n = 360,000); GFP/RFP ratio fluorescence, overnight; percent of plate control window, DMSO zero;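 active = GFP/RFP ratio change of at least 30% with cell ATP level not reduced by more than half and red fluorescence within 50% of control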; note: strong numbers were not always called active
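Material – HT1080 RFP-PRO-GFP cells · Control set – DMSO wells and RFP-L50D-GFP cells · Incubation – overnight cell settling, then overnight compound exposure, 37 °C, 5% CO2 · Compound dosing – single-point 20 µM compound, 1% DMSO · Read-out – GFP/RFP fluorescence ratio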
eIF4H FP inh retest – also measured in eIF4H FP inh; calls as there; inhibition, %; compound at 20 µM; confirmation average;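 mean of two retest wells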
PABP FP inh retest – second read-out of PABP FP inh, no call of its own (marks repeat the call); inhibition, %; compound at 20 µM; confirmation repeats;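 mean of two retest wells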
MT1-MMP act inh RFP – second read-out of MT1-MMP act inh, no call of its own (marks repeat the call); RFP signal change, %; measured here: RFP expression control read;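 0 = vehicle wells; hits needed this value within 50% of zero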
Numbers without * were called inactive; i = inactive; u = inconclusive; x = not tested or not shown; & = joins results of further samples.

SMILES	UUG fidelity	Rce1 inhib	PABP FP inh	eIF4H FP inh	CSC inhib	HIV Env fusion	MT1-MMP act inh	MT1-MMP act inh RFP	others
CCC(c1nnnn1C(C)(C)CC)N1CCN(c2ccccc2F)CC1 (stereo unspecified)	-10	i	-2	2	-13	13	0	3
CCOC(=O)N1CCN(Cc2nc(N)nc(Nc3ccc(Cl)cc3)n2)CC1	x	i	7	2	4	2	0	-3
Cc1ccc(Cl)c(OCCN2CCc3ccccc3C2)c1	-3	i	-8	3	33	-1	1	-3
Cc1ccc(NC(=S)Nc2cccc3cnccc23)c(C)c1	-25	i	-12	21	35	-10	1	4
Cc1ccccc1-c1noc(-c2ccccc2C(=O)NCc2ccco2)n1	x	i	3	-5	-14	-6	1	-5
CC(C)C[C@H](NC(=O)OC(C)(C)C)C(=O)N/N=C/C1=Cc2ccccc2OC1C (stereo partly specified)	-9	i	-12	-6	x	28	-7	-9
O=C(COC(=O)CC1CCS(=O)(=O)C1)Nc1ccc(F)cc1 (stereo unspecified)	-7	x	x	x	-17	13	0	7
CS(=O)(=O)c1cccc(C(=O)NCc2ccccc2)c1	-20	i	-7	-3	-5	x	-6	-2
COc1ccccc1-c1cnc(C(O)c2cccc(F)c2)[nH]1 (stereo unspecified)	-23	x	x	x	x	-10	0	4
COc1ccc(C2=NN(C(=O)CCCC(=O)O)C(c3cccs3)C2)cc1OC (stereo unspecified)	x	i	5	-10	-4	-2	4	9
O=C(CSc1nnc(C2CC2)n1Cc1ccccc1)N1CCNC1=O	x	x	x	x	-4	-14	-1	5
CCc1ccc(-c2csc3[n+]2CCN3C(C)=O)cc1	-18	i	3	-1	35	x	-2	-1
Cc1ccc2cccc(OCC(=O)Nc3ccc4c(c3)OCO4)c2n1	-10	i	69	-8	0	-13	1	-1	eIF4H FP inh retest=3;PABP FP inh retest=-1
O=C(CSc1nnc(NC(=O)C2CC2)s1)Nc1ccccc1	-19	i	10	-17	2	-1	3	0
CC1=C(C(=O)Nc2ccccn2)C(c2ccccc2Cl)NC(=S)N1 (stereo unspecified)	-14	i	13	-3	-12	-5	-1	3
C[C@H](CO)N1C[C@H](C)[C@@H](CN(C)CC2CCCCC2)Oc2c(NC(=O)Cc3ccccc3)cccc2C1=O	-26	x	x	x	x	-124	-7	-9
CCOC(=O)CNC(=O)CSc1nc(-c2cccc(C)c2)ns1	x	i	12	5	5	12	4	1
CC(C)CC(NS(=O)(=O)c1cc(C(=O)O)ccc1Cl)C(=O)O (stereo unspecified)	-8	i	13	3	-4	12	1	2
CC(/C=N\NC(=O)Cn1cncn1)=C/c1ccc(C(C)C)cc1	-34	i	-6	-19	0	-4	-3	-1
O=C(C(=O)N1CCCCCC1)c1c[nH]c2ccccc12	-1	i	-9	-2	-10	-13	10	-3
COc1ccccc1OCc1ccc(C(=O)Nc2ccccc2F)cc1	x	i	-6	-3	-3	-17	-1	-6
Cn1c(=O)c(=O)n(C)c2cc([N+](=O)[O-])c(N3CCOCC3)cc21	-7	i	0	-7	-14	10	-1	2
CN1C(=O)c2ccc(NC(=O)c3ccc(N4CCCCC4)c([N+](=O)[O-])c3)cc2C1=O	x	i	-1	10	-16	14	6	1
CC(C(=O)NC1CCCC1)N1C(=O)c2cccc3cccc1c23 (stereo unspecified)	-17	i	2	-1	0	18	-5	3
O=C(NCC1OCCc2ccccc21)c1ccc(NC(=O)c2cccc(Br)c2)cc1 (stereo unspecified)	-8	i	18	-6	-4	26	5	1
NC(=O)C1CCN(C(=O)CN(c2cccc(C(F)(F)F)c2)S(=O)(=O)c2ccccc2)CC1	-8	i	-1	-13	x	x	-2	-2
CCN(C(=O)COC(=O)c1ccc2c(c1)OCO2)c1c(N)n(Cc2ccccc2)c(=O)[nH]c1=O	-11	x	x	x	x	-1	2	0
NC(=O)c1ccc(N2CCCCC2)c(N2C(=O)C3CC=CCC3C2=O)c1 (stereo unspecified)	x	i	-13	-8	-6	-55	-4	-1
Clc1cccc2sc(N3CCN(c4ccccc4)CC3)nc12	x	i	-4	0	3	4	1	-14
Cc1ccc(-c2cc(C(=O)NCCc3ccc(S(N)(=O)=O)cc3)c3ccccc3n2)cc1	x	i	-4	-3	6	-6	0	-4
N/C(=N\OC(=O)COc1ccc(Cl)cc1Br)c1ccncc1	x	x	-10	-5	x	-62	4	1
CCOC(=O)C1=C(C)NC(C)=C(C(=O)OCC)C1c1ccccn1	-9	i	3	3	-11	11	-1&5	1&6
CN1CCCN(S(=O)(=O)c2ccc(O)c(C(=O)O)c2)CC1	-23	i	4	-3	-4	12	-2	2
CCn1cc(C(=O)O)c(=O)c2cnc(N3CCN(C(=S)NC(=O)c4ccccc4)CC3)nc21	x	i	3	2	1	-5	-5	-1
COc1cc(C)ccc1OCc1cc(C(=O)N2CCN(C3CCCCC3)CC2)no1	2	i	2	0	x	-38	-4	-2
CN(C)c1ccc(/C=C/C(=O)c2cccc(Br)c2)cc1	-22	i	u	u	x	-55	-120	-2
CCOc1ccccc1OCC(=O)NCCc1ccc(S(N)(=O)=O)cc1	x	i	-1	-5	4	-1	-1	-6
O=C(COc1ccc2ccccc2c1)Nc1ccc2c3c(cccc13)CC2	x	i	2	-3	16	8	2	-6
CC(C)CCn1c(=O)[nH]c2ccccc21	-11	i	8	-4	-19	-10	-17	-7
O=C1c2ccccc2-c2onc3ccc(Oc4ccccc4)c1c23	20	i	-1	103	x	-359	-69	88	eIF4H FP inh retest=-1;PABP FP inh retest=2

Arranged by length of the SMILES (high to low): part of the list above.
SMILES	UUG fidelity	Rce1 inhib	PABP FP inh	eIF4H FP inh	CSC inhib	HIV Env fusion	MT1-MMP act inh	MT1-MMP act inh RFP	others
O=C(COc1ccc2ccccc2c1)Nc1ccc2c3c(cccc13)CC2	x	i	2	-3	16	8	2	-6
CCOc1ccccc1OCC(=O)NCCc1ccc(S(N)(=O)=O)cc1	x	i	-1	-5	4	-1	-1	-6
CN(C)c1ccc(/C=C/C(=O)c2cccc(Br)c2)cc1	-22	i	u	u	x	-55	-120	-2

Other structures:
SMILES	UUG fidelity	Rce1 inhib	PABP FP inh	eIF4H FP inh	CSC inhib	HIV Env fusion	MT1-MMP act inh	MT1-MMP act inh RFP	others
CCOc1ccc(/C=N/N2C(C)CCCC2C)cc1OC (stereo unspecified)	-15	i	1	4	-2	4	-3	-1
C=CCSc1nc(C)c(CCC(C)C)c(=O)[nH]1	x	i	-12	-7	-8	6	2	5
CCOC(=O)COn1c(=O)c(=O)n(O)c2ccccc21	0	i	1	-5	-3	x	0	0
COc1ccc(CCN(/C=C2\Sc3ccccc3C2=O)C(C)=O)cc1OC	-8	i	0	-7	-12	-20	6	2
O=C(NC12CC3CC(CC(C3)C1)C2)c1ccc(S(=O)(=O)N2CCOCC2)cc1	-4	i	-5	-1	-13	x	10	-5
Cc1[nH]c2ccccc2c1C(=O)CN1CCSCC1	-10	i	6	2	x	x	5	6
CC(C)(C)C(=O)N1CCN(c2ncccc2C(F)(F)F)CC1	-17	x	-7	3	-13	7	1	-1
Cc1cc(C(=O)CSc2nc(N)cc(=O)[nH]2)c(C)n1Cc1ccco1	-14	i	10	43	2	16	-5	-23
O=C1CSC(c2ccc([N+](=O)[O-])cc2)N1Cc1ccccc1 (stereo unspecified)	-26	i	7	32	-5	0	1	-2
OC(CNCc1ccccc1)(c1ccccc1)c1ccccc1	-25	i	-4	-1	3	-1	-4	0
COc1ccccc1NS(=O)(=O)c1cccc(C(=O)OCc2nc3ccccc3s2)c1	x	i	6	3	-17	7	-3	4
COCCNS(=O)(=O)c1cc(OC)c(Cl)cc1Cl	x	i	0	2	x	-17	x	x
COc1ccccc1NC(=O)CCn1cccc1	-11	i	-1	-1	-10	-62	5	9
COc1ccc(-c2cc3nc(C)cc(N)n3n2)cc1	-64	x	-4	-9	69	-435	5	2
Nc1cc(N)nc(SCC(=O)NNC(=O)Cc2ccccc2)n1	x	i	-8	-3	-2	-12	4	3
O=C(COc1ccccc1F)NC12CC3CC(CC(C3)C1)C2	x	i	18	-8	-7	19	-1	-1
COc1ccccc1NC(=O)CCCNC(=O)Cn1cnc2sc(C)c(C)c2c1=O	-4	i	6	-5	17	-7	0	0
CC1(c2ccc(Cl)cc2Cl)NC(=O)N(CC(=O)NCCC2=CCCCC2)C1=O (stereo unspecified)	9	x	x	x	x	14	1	-5
COc1ccc(NC(=O)CC#N)cc1OC	-13	x	-8	2	-6	-21	-2	7
COc1ccccc1N1CCN(/N=C\C(Br)=C\c2ccccc2)CC1	-13	i	7	8	10	-18	-3	-2
CCN(CC(=O)Nc1cccc(C(C)=O)c1)S(=O)(=O)c1ccc(C)cc1	9	i	0	-10	3	15	1	2
Cc1cc(C)cc(NC2=NC3(CCCCC3)N=C(N)N2)c1	-13	i	-8	2	53	x	1	-5
NC(=O)c1cccc(NC(=O)Nc2ccc(Cl)cc2)c1	-25	x	-10	-20	-12	-8	4	1
Cc1ccc(S(=O)(=O)N2CCC(C(=O)N3CCN(Cc4ccccc4)CC3)CC2)cc1	1	x	-15	-9	-13	2	3	-4
CC(=O)Nc1ccc2nc(NC(=O)CS(=O)(=O)c3ccc(F)cc3)sc2c1	-11	x	x	x	x	-10	2	2
CCC(C)(C)NC(=O)C(c1ccc(OC)cc1)N(C(=O)CCC(=O)Nc1cc(C)on1)c1ccc(OC)cc1OC (stereo unspecified)	-9	i	11	0	5	8	-7	-7
O=C(Cn1cnc2ccccc2c1=O)NCCC(=O)Nc1ccc(F)cc1	-19	i	5	-15	-18	-1	5	5
Cc1ccc(NC(=O)C(=O)NCCCN2CCCC2=O)cc1	-23	i	x	x	-3	-22	2	3
COC(=O)c1ccccc1S(=O)(=O)Nc1ccc(OC)nc1	-3	i	-3	-1	-16	x	6	1
Cc1ccc(NC(=S)N2CCC(NC(=O)c3ccc(F)cc3)CC2)cc1C	-20	i	2	-15	-8	0	2	-3
Cc1cc(C)nc(Nc2cc([N+](=O)[O-])ccc2C)n1	x	i	-7	-6	x	4	3	5
NNC(=O)C1c2ccccc2Oc2ccccc21	x	i	4	-11	-9	-39	-1	0
Cc1ccc(S(=O)(=O)c2cc3ccccc3oc2=Nc2ccc3c(c2)OCO3)cc1	x	i	5	-4	13	-48	-13	-10
CN(C)/C=C/C(=O)c1ccc(Cl)cc1	-12	i	-1	9	-12	-9	0	4
O=C1/C(=C/c2ccc(Cl)cc2)SC(=S)N1CCC(=O)N1CCCCC1CCO (stereo unspecified)	-10	i	-4	-4	15	6	3	-6
COc1cc(C2C(C#N)=C(N)Oc3cc(N(C)C)ccc32)cc2c1OCO2 (stereo unspecified)	-18	x	u	u	52	x	-326	-6
O=C(Nc1cc(F)ccc1F)C1CCCN1S(=O)(=O)c1cccc2nsnc12 (stereo unspecified)	1	i	12	-3	-12	-1	4	3
O=C(Nc1cccnc1)c1c(F)c(F)c(F)c(F)c1F	-13	i	4	8	-3	9	1	2
CC(=O)c1ccc(Oc2cc(C)nc(N3CCOCC3)n2)cc1	x	i	23	-9	-11	-19	2	5

Only part of the results is shown; count on the stated rates, not on these rows.
